# Sfp PPTase inh = blocks B. subtilis Sfp PPTase activity; Potency, µM, for the others: max response, negative = inhibition, most hits filed as inhibitors; Biochemical Sfp PPTase activity, qHTS; AID 1490; 310,000 compounds, 3.5% hits; active = well fitted inhibition curve with a large enough effect; inconclusive = small, poorly fitted or top-dose-only effect, or another doubt; inactive = no such curve, though single readings can be large or run the other way;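 note: the enzyme is Sfp with the accession as filed and its product quenches rhodamine fluorescence; potency is the fitted concentration of half-maximal effect; 0% = enzyme reaction without inhibitor and -100% = no enzyme wells; top concentration of the series not given in the record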
#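 Fluorescence-quenching assay with 15 nM Sfp, 5 uM rhodamine-CoA and 12.5 uM BHQ-2-labelled ybbR peptide in pH 7.6 Hepes/MgCl2 buffer. Enzyme was pre-incubated with compound for 15 min at room temperature. Rate was taken from the 30-min fluorescence change (525/598 nm).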
# ClpP mod = qHTS Assay for Activators of ClpP; purified B. subtilis ClpP, FRET peptide cleavage, 20 min; Potency, µM (doses to about 57.5 µM), for the others: at the highest dose activity change, negative = active; 340,000 compounds, 1.9% hits; AID 651965, 2013; active = well fitted falling curve with a large enough effect; inconclusive = small, poorly fitted or top-dose-only effect; inactive = no such curve, though single readings can be large or run the other way; note: potency is the fitted concentration of half-maximal effect; the source files actives as falling curves though it sought activators and does not explain the sign; nearly all actives have a fitted effect of over 65% in size; many hits overshoot -100%
# Target sequence (P80244 whole entry, looked up): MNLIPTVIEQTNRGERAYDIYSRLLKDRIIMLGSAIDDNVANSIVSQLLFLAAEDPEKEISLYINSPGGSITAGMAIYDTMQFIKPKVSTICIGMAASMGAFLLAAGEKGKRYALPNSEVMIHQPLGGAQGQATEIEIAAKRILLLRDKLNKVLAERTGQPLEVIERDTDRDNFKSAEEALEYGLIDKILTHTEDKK
#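 Purified B. subtilis ClpP, 10 microg/mL final in Tris/HCl pH8 with KCl, BSA, glycerol and Tween-20, cleaved an Abz/nitrotyrosine-quenched decapeptide. Fluorescence (ex 320, em 430) was read at 0 and 20 min at room temperature. Delta was normalized to 5.8 microM ADEP and DMSO/no-enzyme controls.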
# Menin MLL FP FL = inhibitors of human menin-MLL interaction, wild-type MLL peptide; Fluorescence polarization, fluorescein-MLL peptide displacement from menin; FP activity change, % at 61.4 µM; 290,000 tested, under 10 active; inconclusive = falling polarisation curve, or a change in total fluorescence; inactive = total fluorescence flat and polarisation flat or rising; no compound was filed as active; the % refers to the polarisation; negative = inhibition;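 note: % of control where 0% means no effect; inhibitors lower the polarisation; unlabelled MLL peptide was the positive control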
# TRPML1 ag = agonists of human TRPML1 channel; Q9GZU1; TRPML1-expressing cells, Ca2+ dye fluorescence, FDSS; host cell line not named in the record; reference of the full effect not given here; activation, % (concentration not given with the values); 410,000 compounds, 0.12% hits; AID 624414; in the data active = activation above about 50%; inconclusive = about 30% to 50%; inactive = below about 30%; note: 0% is about no effect; the text of the record puts the active cut at 80%
# Target sequence (Q9GZU1 whole entry, looked up): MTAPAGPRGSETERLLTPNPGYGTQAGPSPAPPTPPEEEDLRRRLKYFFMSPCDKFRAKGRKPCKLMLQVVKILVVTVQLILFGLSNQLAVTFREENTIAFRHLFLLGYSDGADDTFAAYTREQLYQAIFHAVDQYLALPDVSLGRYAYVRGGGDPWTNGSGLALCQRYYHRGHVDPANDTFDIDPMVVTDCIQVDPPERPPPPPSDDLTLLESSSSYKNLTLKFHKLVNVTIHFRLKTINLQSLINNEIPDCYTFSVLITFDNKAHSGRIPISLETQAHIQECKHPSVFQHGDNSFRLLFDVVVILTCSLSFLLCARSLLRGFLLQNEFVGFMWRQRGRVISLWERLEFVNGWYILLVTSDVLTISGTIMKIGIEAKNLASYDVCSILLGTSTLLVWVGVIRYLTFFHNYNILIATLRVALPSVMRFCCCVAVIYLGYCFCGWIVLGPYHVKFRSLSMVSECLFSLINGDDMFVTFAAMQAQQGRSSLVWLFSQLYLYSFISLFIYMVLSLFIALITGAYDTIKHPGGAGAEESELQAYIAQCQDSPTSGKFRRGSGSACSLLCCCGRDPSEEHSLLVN
#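 Cells: TRPML1-DL, 1X Tet inducer, ~16 h at 37 degrees C/5% CO2. Dye: ABD Ca8 no-wash + quencher, 45-90 min RT. Read: 10 s baseline, compound add, 110 s agonist phase; 54-4 EC80 (4uM final), 110 s antagonist phase.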
# PINK1 modulator = changes PINK1 expression; Potency, µM (highest dose often 76.6 µM), without a hit: top-dose activation (PINK1 increase), hits mostly activators; PINK1 immunofluorescence, high-content cytometry, 24 h; 410,000 compounds, 0.2% hits; active = well fitted activation curve with a large enough effect; inconclusive = small, poorly fitted or top-dose-only effect; inactive = flat fitted curve, though single readings scatter; cell line not stated here;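 note: potency is the fitted concentration of half-maximal effect; % of control where 0% means no effect; nearly all actives have a fitted effect of over 65% in size; a mitochondrial uncoupler was the plate control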
#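 Decision-based qHTS: stable cells, 24 h exposure to five compound concentrations, CCCP as control. Fixed cells stained for PINK1 plus nuclear, mitochondrial and cell markers, cytometer read.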
# TRPML1 inh = blocks the human TRPML1 channel. TRPML1-inducible cells, Ca2+ dye fluorescence, FDSS; active compounds read low; inhibition of EC80 agonist-evoked calcium signal. AID 624415. activity change, negative = inhibition, % (test concentration not listed). 390,000 compounds, 0.02% hits. Q9GZU1; in the data active means activity change below about -50%; inconclusive means about -30% to -50%; inactive means above about -30%;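 note: stimulus is agonist 54-4 at its EC80 concentration; % is set by controls: 0 for no effect and ±100 for the full control effect; compound concentration not given in the record; the text of the record puts the active cut at -80%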
#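 TRPML1-DL cells, Tet-induced overnight (~16 h, 37 °C) at 1,500 cells/well, were loaded with Ca8 no-wash dye plus quencher for 45-90 min at room temperature. Compounds were pinned during FDSS kinetic reading; agonist 54-4 at EC80 (4 uM final) then added.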
# TRPV1 PAM = human TRPV1 potentiation | Q8NER1 | TRPV1-expressing cells, Fluo-8 calcium influx, capsaicin EC20 potentiation; host cell line not named in the record; control for the full effect not named in the record | potentiation, % at 8.33 µM | 320,000 compounds, 0.02% hits; active means potentiation above 80%; inconclusive means 30% to 80%; inactive means below 30%; note: 0% is about no effect
#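 Cells expressing TRPV1 were dye-loaded with Fluo-8 and read kinetically: 10 s baseline, 3 min after compound (agonist portion), then 2 min after EC20 capsaicin (allosteric enhancer portion). Calcium-bound dye fluorescence at 480/520 nm.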
# * = called active by the depositor; ? = inconclusive; . = no result given.
# Each structure is followed by: Sfp PPTase inh	ClpP mod	Menin MLL FP FL	TRPML1 ag	PINK1 modulator	TRPML1 inh	TRPV1 PAM
- CCc1ccc(CNC(=O)C2CCN(C(=O)N3CC(CC)Oc4ccc(C)cc43)CC2)cc1 (configuration not stated)
  .	-0.1%	.	1.3	-0.5%	-14	.
- CC(=O)N1CCCc2cc(S(=O)(=O)NCc3ccc(N(C)C)cc3)ccc21
  .	-0.8%	.	0.0	-0.9%	0	.
- N/C(=N\OC(=O)Oc1ccccc1)c1ccc([N+](=O)[O-])cc1
  4%	-0.3%	-1.9	-1.7	3.7%	-15	-3
- CC(=O)Nc1ccccc1C(=O)C(=O)Nc1ccc(Cl)cc1
  16%	-0.1%	-2.0	0.9	1.6%	35	-2
- CCCn1c(SCC(=O)NC2CCCC2)nnc1C(C)C
  6%	.	-0.4	-1.2	0.4%	0	-4
- COC(=O)c1scc(C)c1NC(=O)c1ccc(Cl)cc1
  16%	-1.7%	-0.6	-1.0	4.3%	-27	17
- COc1ccc(-n2cccc2/C=C2/NC(=O)N(c3cccc(Cl)c3)C2=O)cc1
  -12%	25µM*	12	0.1	7.5%	20	18
- COc1ccc(-n2c(C)c([N+](=O)[O-])c3ccc(O)c(CN(C)C)c32)cc1
  6%	22µM*	5.3	0.2	-1.0%	25	6
- COc1ccc2c(CC(=O)Nc3ccc4nc(N5CCOCC5)sc4c3)coc2c1
  .	0.5%	.	0.8	2.0%	2	.
- CCCc1ccc(C(=O)NNC(=O)c2ccc(Cl)cc2)cc1
  3%	-2.5%	-0.9	-0.3	7.4%	-21	-16
- Brc1c(-c2ccccc2)nc2n1Cc1ccccc1-2
  -26%	1.0%	1.7	1.0	8.4%	-5	-1
- O=C(NCc1ccccc1)C1CCN(C(=O)c2cnn(-c3ccccc3)c2-n2cccc2)CC1
  .	-3.3%	.	1.3	0.1%	1	.
- COc1cc(/C=N/NC(=O)/C(=C\c2ccc([N+](=O)[O-])cc2)NC(=O)c2ccccc2)cc(OC)c1O
  -17%	-0.3%	1.1	-0.2	-0.3%	14	11
- CCCCC(O)(CCCC)C(=O)NN(C(=O)CCl)c1ccccc1
  -12%	1.0%	3.1	1.0	-2.9%	-2	-5
- CC1CC(C)CN(CC(=O)NCCc2ccc(S(N)(=O)=O)cc2)C1 (configuration not stated)
  5%	.	0.7	0.4	-1.2%	2	-6
- Cc1cccc(C)c1-n1nnnc1C(c1ccnc2ccccc12)N1CCN(CC(=O)NC(C)C)CC1 (configuration not stated)
  .	-2.7%	.	1.2	1.7%	.	.
- COc1ccc(-c2noc(-c3ccco3)n2)cc1OC
  4%	0.3%	-1.5	-0.2	0.4%	6	19
- Cc1ccc(C(=O)COC(=O)c2ccc(Br)o2)cc1C
  -12%	0.6%	1.8	-0.5	-1.0%	-3	.
- COCc1cc(CN(C)C(=O)c2oc3c(F)cccc3c2C)[nH]n1
  12%	-2.5%	1.9	-0.9	-0.9%	11	14
- CC(=O)Nc1ccc(NC(=O)c2ccc(Cn3cc(Cl)cn3)cc2)cc1
  16%	1.1%	-0.9	0.1	-0.4%	13	-7

# Copied from the list:
# Cc1ccc(C(=O)COC(=O)c2ccc(Br)o2)cc1C | PINK1 modulator = -1.0%
# COc1ccc(-n2c(C)c([N+](=O)[O-])c3ccc(O)c(CN(C)C)c32)cc1 | TRPML1 ag = 0.2
# CCCCC(O)(CCCC)C(=O)NN(C(=O)CCl)c1ccccc1 | ClpP mod = 1.0%
# COC(=O)c1scc(C)c1NC(=O)c1ccc(Cl)cc1 | PINK1 modulator = 4.3%

# Retrieved by compound from above:
# Each structure is followed by: Sfp PPTase inh	ClpP mod	Menin MLL FP FL	TRPML1 ag	PINK1 modulator	TRPML1 inh	TRPV1 PAM
- N/C(=N\OC(=O)Oc1ccccc1)c1ccc([N+](=O)[O-])cc1
  4%	-0.3%	-1.9	-1.7	3.7%	-15	-3
- O=C(NCc1ccccc1)C1CCN(C(=O)c2cnn(-c3ccccc3)c2-n2cccc2)CC1
  .	-3.3%	.	1.3	0.1%	1	.

# Later entries:
# Each structure is followed by: Sfp PPTase inh	ClpP mod	Menin MLL FP FL	TRPML1 ag	PINK1 modulator	TRPML1 inh	TRPV1 PAM
- Cc1ccc(C2=NN(C(=O)CCC(=O)O)C(c3cccs3)C2)cc1 (configuration not stated)
  22%	-5.4%	-0.2	.	0.0%	.	8
- COc1ccc(-n2ncc3c(NCCN4CCOCC4)ncnc32)cc1
  6%	-22%	0.2	1.8	-4.1%	-13	-6
- Cc1ccccc1NC(=O)COc1ccc(Br)cc1C
  -5%	-16%	3.0	-0.1	-0.3%	42	-6
- CCC(C)NC(=O)CNC(=O)c1nn(-c2ccc(OC)cc2)c(=O)c2ccccc12 (configuration not stated)
  9%	.	7.1	0.1	2.0%	-6	-13
- CC(C)c1ccc(NC2CCCN(C(=O)C3=NN(C)C(=O)CC3)C2)cc1 (configuration not stated)
  6%	-1.3%	.	-0.6	-0.6%	-6	-15
- Cc1ccc(NCC(=O)N/N=C\c2cccc(O)c2)cc1
  -11%	1.5%	-1.5	-0.2	1.6%	6	-15
- CC(=O)NC1CCC(OC(=O)Nc2ccccc2)CC1 (configuration not stated)
  .	0.6%	.	0.5	1.2%	-2	.
- Cc1ccc2nc(-c3cccc(Cl)c3)c(Nc3ccc4c(c3)OCO4)n2c1
  .	?	.	3.6	-3.1%	22	.
- COC(=O)/C=C\C(C#N)(C#N)N=Cc1ccc(OC)cc1
  .	-6.7%	.	0.4	2.5%	2	.
- C/C(CC(=O)Nc1ccc(Cl)cc1Cl)=N\NC(=O)c1ccco1
  5%	-1.1%	1.8	-0.4	3.1%	1	-2

# Some of these compounds in order of molecular weight, smallest number first.
# Each structure is followed by: Sfp PPTase inh	ClpP mod	Menin MLL FP FL	TRPML1 ag	PINK1 modulator	TRPML1 inh	TRPV1 PAM
- Cc1ccc(NCC(=O)N/N=C\c2cccc(O)c2)cc1
  -11%	1.5%	-1.5	-0.2	1.6%	6	-15
- Cc1ccc(C2=NN(C(=O)CCC(=O)O)C(c3cccs3)C2)cc1 (configuration not stated)
  22%	-5.4%	-0.2	.	0.0%	.	8
- CC(=O)N1CCCc2cc(S(=O)(=O)NCc3ccc(N(C)C)cc3)ccc21
  .	-0.8%	.	0.0	-0.9%	0	.

# (further entries)
# Each structure is followed by: Sfp PPTase inh	ClpP mod	Menin MLL FP FL	TRPML1 ag	PINK1 modulator	TRPML1 inh	TRPV1 PAM
- CCc1ccccc1NS(=O)(=O)c1cc2c(cc1C)n(C)c(=O)c(=O)n2C
  7%	1.7%	-2.8	0.7	-0.6%	1	25
- CN1CCC[C@@H]1CCNC(=O)c1cccc2c1C(=O)c1ccc(N3CCCC3)cc1S2(=O)=O
  .	0.7%	.	5.7	-1.1%	5	.
- Cc1cc(C(C)(C)C)oc1C(=O)OCC(=O)NC1CCCCC1
  -4%	-2.5%	-1.3	5.5	1.2%	-9	-21
- O=C(Nc1ccc(-c2nnn(CC(=O)N3CCN(C(=O)c4ccco4)CC3)n2)cc1)c1ccc(F)cc1
  6%	107%	-4.8	.	1.6%	.	-3

# Entries shown so far that contain a thiophene ring, fused or not, in the order listed:
# Each structure is followed by: Sfp PPTase inh	ClpP mod	Menin MLL FP FL	TRPML1 ag	PINK1 modulator	TRPML1 inh	TRPV1 PAM
- COC(=O)c1scc(C)c1NC(=O)c1ccc(Cl)cc1
  16%	-1.7%	-0.6	-1.0	4.3%	-27	17
- Cc1ccc(C2=NN(C(=O)CCC(=O)O)C(c3cccs3)C2)cc1 (configuration not stated)
  22%	-5.4%	-0.2	.	0.0%	.	8

# From PubChem BioAssay
